USP1 inh = inhibitors of human USP1/UAF1 deubiquitinase; Potency, µM (series often up to 57.1 µM), without a hit: at the top dose activity change, negative = inhibition, actives largely listed as inhibitors; recombinant USP1/UAF1, Ub-Rhodamine cleavage fluorescence; AID 743255; O94782; 390,000 compounds, 0.23% hits; note: % is set by controls: 0 for no effect and ±100 for the full control effect; nearly all actives have a fitted effect of over 60% in size; inactives centre near -12
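In this screen, compounds sit with the deubiquitinase complex (1nM) for 15 min at room temperature before Ub-Rho is added at 150nM final. Fluorescence rise is then followed for 6 reads every 60 seconds.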
TrxR1 inh = rat TrxR1 inhibition; AID 588453; recombinant rTrxR1, NADPH fluorescence consumption, selenite substrate; 390,000 compounds, 1% hits; O89049; Potency, µM (series often up to 114 µM), inactives show at the top dose activity change, negative = inhibition, usual class: inhibitors; note: % is set by controls: 0 for no effect and ±100 for the full control effect; nearly all actives have a fitted effect of over 65% in size
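Rat TrxR1 (90 nM in the dispensed reagent) was pre-reduced with 400 uM NADPH for 5 min at room temperature, then incubated with compound for 15 min. After 400 uM selenite was added, NADPH fluorescence (Ex 340/Em 450 nm) was followed for 8 min.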
12-LOX inh = blocks human arachidonate 12S-lipoxygenase; Potency, µM (top dose mostly 108 µM), for inactives: at the highest dose activity change, negative = inhibition, most hits filed as inhibitors; purified 12hLO, xylenol orange hydroperoxide absorbance; P18054; 580,000 compounds, 1.1% hits; note: % is set by controls: 0 for no effect and ±100 for the full control effect
Target sequence (P18054 whole entry, looked up): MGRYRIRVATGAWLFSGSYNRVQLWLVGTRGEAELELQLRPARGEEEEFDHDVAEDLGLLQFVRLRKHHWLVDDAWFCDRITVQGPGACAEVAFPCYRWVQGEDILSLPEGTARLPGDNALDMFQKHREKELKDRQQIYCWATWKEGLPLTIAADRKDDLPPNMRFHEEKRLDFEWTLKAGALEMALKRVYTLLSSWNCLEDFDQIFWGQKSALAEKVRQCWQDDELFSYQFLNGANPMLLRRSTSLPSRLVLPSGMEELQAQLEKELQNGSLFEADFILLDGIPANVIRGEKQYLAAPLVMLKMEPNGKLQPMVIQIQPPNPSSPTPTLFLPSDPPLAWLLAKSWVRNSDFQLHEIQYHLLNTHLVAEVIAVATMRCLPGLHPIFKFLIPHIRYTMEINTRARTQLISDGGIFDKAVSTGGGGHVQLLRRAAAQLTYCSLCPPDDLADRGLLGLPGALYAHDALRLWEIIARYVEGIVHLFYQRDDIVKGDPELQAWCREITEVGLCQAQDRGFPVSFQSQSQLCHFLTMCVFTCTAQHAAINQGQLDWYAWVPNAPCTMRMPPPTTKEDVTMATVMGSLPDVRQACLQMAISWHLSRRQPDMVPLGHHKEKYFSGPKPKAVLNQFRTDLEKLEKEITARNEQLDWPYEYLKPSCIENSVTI
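Purified human 12hLO at 150 nM in 25 mM Hepes, 0.01% Triton X-100, pH 7.0, preincubated 15 min at room temperature with compound. Reaction started with 40 uM arachidonic acid, 30 min at room temperature. Hydroperoxide measured by Fe-xylenol orange, 573/405 nm absorbance ratio.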
Vif-APOBEC3F blk = blocks the Vif interaction with APOBEC3F | HeLa A3F-eYFP + Vif (tagged APOBEC3F with the HIV-1 protein that degrades it), YFP fluorescence increase | Potency, µM (top dose mostly 46.1 µM), inactives show at the highest dose activity, negative = active | 390,000 compounds, 0.2% hits; note: % of control where 0% means no effect; nearly all actives have a fitted effect of over 65% in size
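HeLa cells stably expressing A3F-eYFP plus Vif, plated and incubated overnight at 37 deg C, then exposed to compounds overnight at 37 deg C. Blocked degradation read as raised yellow fluorescence (Ex 488/Em 500-530).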
TrxR1 substrate = substrates of rat thioredoxin reductase 1. O89049. purified TrxR1 substrate turnover, NADPH consumption readout. Potency, µM (highest dose often 114 µM), for the others: at the highest dose activity change, negative = substrate turnover. 390,000 compounds, 0.01% hits. AID 588456; note: % is set by controls: 0 for no effect and ±100 for the full control effect; nearly all actives have a fitted effect of over 50% in size
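Rat TrxR1, dispensed at 90 nM, was prereduced with 400 uM NADPH (final) for 5 min at ~22 deg C, then incubated with compound 15 min before 400 uM selenite. A first-read NADPH fluorescence drop versus no-compound background flagged substrates.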
Vif-APOBEC3G blk = blocks the Vif interaction with human APOBEC3G; HeLa A3G-eYFP + Vif (tagged APOBEC3G with the HIV-1 protein that degrades it), YFP fluorescence, overnight; Potency, µM (doses to about 46.1 µM), without a hit: top-dose activity, negative = active, most hits filed as inhibitors; 410,000 compounds, 0.076% hits; AID 602310;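 note: % is set by controls: 0 for no effect and ±100 for the full control effect; nearly all actives have a fitted effect of over 60% in size; hits raise eYFP signal because A3G escapes Vif-driven loss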
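Read-out is eYFP fluorescence (Ex 488/Em 500-530) from Vif-expressing HeLa A3G-eYFP cells; more signal means A3G escaped Vif-mediated degradation. Cells plated overnight, compound pinned in, incubated overnight at 37 deg C.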
mIDH1 inhibitor = inhibitors of human mutant IDH1 R132H. Potency, µM (doses to about 76.6 µM), inactives show at the highest dose activity change, negative = inhibition, most hits filed as inhibitors. 390,000 compounds, 0.093% hits. IDH1-R132H enzyme, NADPH consumption, diaphorase/resazurin fluorescence. O75874; note: % is set by controls: 0 for no effect and ±100 for the full control effect; nearly all actives have a fitted effect of over 65% in size
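IDH1-R132H (0.5 ug/mL) preincubated 30 min with compound, then NADPH (0.016 mM) and alpha-KG (2 mM) added; 80 min at RT, pH 7.5. Remaining NADPH coupled via diaphorase/resazurin to fluorescence (540/590 nm); concentration-response curves normalized to no-enzyme control.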
RGS4 inhibitor = blocks human RGS4-accelerated GTP hydrolysis | P49798 | Transcreener GDP fluorescence polarization, RGS4-accelerated GTP hydrolysis | Potency, µM (top dose mostly 114 µM), inactives show top-dose activity change, negative = inhibition, actives largely listed as inhibitors | 390,000 compounds, 0.039% hits; note: % is set by controls: 0 for no effect and ±100 for the full control effect; nearly all actives have a fitted effect of over 75% in size; some results filed as inactive show a strong effect at the top dose
Target sequence (P49798 whole entry, looked up): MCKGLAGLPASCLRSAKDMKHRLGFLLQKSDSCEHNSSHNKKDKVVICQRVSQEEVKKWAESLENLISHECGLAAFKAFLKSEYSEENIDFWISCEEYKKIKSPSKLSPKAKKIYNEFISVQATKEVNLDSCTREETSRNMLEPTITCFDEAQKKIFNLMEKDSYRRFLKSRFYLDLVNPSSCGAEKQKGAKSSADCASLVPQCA
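MLSMR compounds (23 nl, pin-transferred) preincubated 10 min at room temperature with a 500nM (2x) first reagent, then RGS4 at 900nM (2x) plus Transcreener GDP mix added; fluorescence polarization (620/688 nm) read before and after 90 min at 30 °C.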
Active calls of the source: *; ? = inconclusive; . = no result given; & = joins results of further samples; [ ] = another dose, or the depositor's remark. Calls come from the whole dose curve; as a rule, active = well fitted curve in the direction sought with a large enough effect; inconclusive = small, poorly fitted or top-dose-only effect, or another doubt; inactive = no such curve, though single readings can be large; an effect the other way counts as inactive or inconclusive. Potency is the fitted concentration of half-maximal effect. The list is partial (hit frequency here may not be typical).

1. CCN(CC)CC(C)CNC(=O)c1cc(-c2ccc(Br)s2)nc2ccccc12 (centres undefined)
2. CCOc1ccc(N/C(SCc2cccc([N+](=O)[O-])c2)=C(/C#N)C(N)=O)cc1
3. CCCc1nc(-c2cc3cc(C)ccc3[nH]c2=O)no1
4. CCOc1ccc(C2C(C(=O)c3ccc(C)o3)=C(O)C(=O)N2c2cc(C)on2)cc1OC (centres undefined)
5. Cc1nn2c(-c3cccc(NC(=O)c4ccc(Cl)cc4)c3)nnc2c2ccccc12
6. Cn1c(=O)c2sccc2n2c(CCCC(=O)Nc3ccc(F)cc3F)nnc12
7. COCCCn1c(=S)[nH]c2ccc(N3CCOCC3)cc2c1=O
8. Cn1c(C(=O)O)cc2c(=O)n3ccccc3nc21
Screen / compound no.	1	2	3	4	5	6	7	8
USP1 inh	-18%	-9%	-8%	-16%	-22%	-5%&-23%	-22%	-1%
TrxR1 inh	-6%	40%[activator][57.1 µM]	32%	18%	25%	13%&23%	-24%	?
12-LOX inh	5%	-17%	0%	25µM*	-22%	11%&-10%	?	-7%
Vif-APOBEC3F blk	?	-5%	-3%	-4%	8%	2%&0%	1%	-21%
TrxR1 substrate	13%	2%[57.1 µM]	22%	1%	60%[activator]	2%&18%	7%	634%[activator]
Vif-APOBEC3G blk	2%	-16%	-1%	0%	7%	1%&4%	-3%	-3%
mIDH1 inhibitor	-13%	5%	-6%	9%	-13%	0%&29%	0%	-4%
RGS4 inhibitor	-8%	-28%	33%[11.4 µM]	-18%	28%	-11%&-13%	-14%	0%

9. Cc1ccc(OCC(=O)Nc2ccc(OCc3cc(=O)n4ccsc4n3)cc2)cc1C
10. CCOC(=O)C1CCN(C(=O)Nc2ccc3nc(C)c(C)nc3c2)CC1
11. Cc1ccccc1OCCSc1nnc(-c2ccncc2)n1C
12. O=C(NCc1ccco1)C1CC(=O)N(c2ccc(Cl)cc2)C1 (centres undefined)
13. CC(C)(C)C(=O)C1=C(O)C(=O)N(Cc2ccccc2)C1c1ccccc1Cl (centres undefined)
14. CCc1nnc(SCc2cccc(Cl)c2)c2cc3sccc3n12
15. COC(=O)C1C(O)=C(C=NCC(C)N=CC2=C(O)C(C(=O)OC)C(C)(C)CC2=O)C(=O)CC1(C)C (centres undefined)
16. COc1ccc(-c2cc(-c3cccnc3)c(C#N)c(N)n2)cc1
Screen / compound no.	9	10	11	12	13	14	15	16
USP1 inh	-26%	-4%	6%	-11%	-19%	-24%	-10%	-22%
TrxR1 inh	1%	-26%	1%	?	13%	-2%	5%	39%[activator]
12-LOX inh	-30%	14%	29%	?	-1%	-16%	-8%	219%[activator]
Vif-APOBEC3F blk	0%	-13%	-6%	0%	-6%	.	-6%	-2%
TrxR1 substrate	-3%	173%[activator]	-7%	5%[57.1 µM]	-5%	-7%	-8%	89%[activator]
Vif-APOBEC3G blk	1%	-6%	0%	2%	-5%	.	2%	-3%
mIDH1 inhibitor	13%	-2%	0%	4%	-10%	.	0%	-6%
RGS4 inhibitor	-15%	-11%	14%	4%	-15%	20%	13%	-13%

17. Cc1nc2nc(SCC(=O)NC(C)c3ccccc3)nn2c(C)c1Cc1c(F)cccc1Cl (centres undefined)
18. Cc1cc(O)c(NC(=O)c2ccc(Br)o2)cc1C
19. O=c1c2oc3ccccc3c2[nH]c(=S)n1-c1ccc(F)cc1
20. CCCc1nc(-c2cc3ccc(C)cc3[nH]c2=O)no1
21. CC(C)(C)n1nnnc1C(c1ccc2ncccc2c1)N1CCSCC1 (centres undefined)
22. CCN(CC)S(=O)(=O)c1cccc(C(=O)Nc2ccc(C#N)cc2)c1
23. O=C(COc1ncnc2ccccc12)NCC1CCCO1 (centres undefined)
24. CCCCCC(O)(c1ccc(OCC)cc1)C(CN1CCOCC1)c1ccccc1 (centres undefined)
Screen / compound no.	17	18	19	20	21	22	23	24
USP1 inh	?	-8%	-12%	-9%	-1%	-3%	-19%	-30%
TrxR1 inh	14%	6%	?	-1%[57.1 µM]	7%	9%	16%[57.1 µM]	8%
12-LOX inh	-2%	0%	?	0%	-6%	-4%	-6%	0%
Vif-APOBEC3F blk	-1%	-6%	10%	2%	-13%	-5%	-5%	?
TrxR1 substrate	-1%	-3%	0%	29%[57.1 µM]	-7%	-4%	7%[57.1 µM]	-16%[57.1 µM]
Vif-APOBEC3G blk	2%	0%	0%	0%	3%	0%	0%	-4%
mIDH1 inhibitor	9%	-1%	12%	4%	1%	-2%	-1%	2%
RGS4 inhibitor	-1%	-3%	-48%	-2%	-19%	16%	-2%	5%

25. COc1cccc(-c2ccc3c(N)c(C(=O)Nc4ccc(C)c(F)c4)sc3n2)c1
26. COc1ccccc1NC(=O)CN1CCC(n2c(C)nc3cc(F)ccc32)CC1
27. O=C(NC1CC(=O)N(c2ccc(Cl)cc2)C1)N1CCN(C(=O)c2ccco2)CC1 (centres undefined)
28. Cc1cccc(-c2cc(C(=O)Nc3ccc4c(c3)OCCO4)c3ccccc3n2)c1
29. CSc1ncccc1C(=O)N(C)CC(=O)Nc1ccc(Cl)c(C(F)(F)F)c1
30. O=C(Nc1cccc(-c2nc3ccccc3[nH]2)c1)c1ccco1
31. CC(CN1CCOCC1)C(=O)c1ccccc1 (centres undefined)
32. Cc1cccc(Nc2nn3c(=O)c4ccccc4nc3s2)c1
Screen / compound no.	25	26	27	28	29	30	31	32
USP1 inh	-2%	-4%	-10%	-8%	-8%	-24%	-4%	-3%
TrxR1 inh	?	13%	-8%	11%[57.1 µM]	-8%	-19%	?	3%
12-LOX inh	-13%	-11%	?	160%[activator]	-3%	-5%	-2%	?
Vif-APOBEC3F blk	-7%	-8%	8%	4%	4%	1%	-1%	4%
TrxR1 substrate	-1%	2%	-8%	-2%	-5%	11%	9%	3%
Vif-APOBEC3G blk	-4%	-1%	3%	1%	2%	1%	-7%	-6%
mIDH1 inhibitor	-4%	-3%	6%	-2%	4%	11%	1%	-5%
RGS4 inhibitor	-7%	3%	-14%	?	4%	-8%	17%	-16%

33. Cc1cccc(-n2c(=S)[nH]c3c(oc4ccccc43)c2=O)c1
34. CC1CCCN(C(=O)C2CC(=O)N(c3ccc(Cl)cc3)C2)C1 (centres undefined)
35. COc1ccc(OCCNC(=O)CSc2ccc(C(F)(F)F)cc2[N+](=O)[O-])cc1
36. Cc1c(C(=O)NCc2ccccc2F)oc2ccccc12
37. CC(C)(O)C(=O)NN(C(=O)c1ccccc1)c1ccc2ccccc2c1
38. CSc1n[nH]c(NCc2ccccc2)n1
39. COc1cccc(N(C(=O)c2cnccn2)C(C(=O)NC2CCCCC2)c2ccc(Cl)cc2)c1 (centres undefined)
40. O=C(CCn1c(=O)c2cccn2c2ccc(F)cc21)NCCc1ccccc1Cl
Screen / compound no.	33	34	35	36	37	38	39	40
USP1 inh	-8%	-2%	3%	-23%	-4%	-12%	0%	-6%
TrxR1 inh	?	16%	5%	25%	25%[57.1 µM]	18%[57.1 µM]	34%[57.1 µM]	14%
12-LOX inh	-22%	-15%	12%	7%	.	7%	27%	-9%
Vif-APOBEC3F blk	4%	-9%	3%	-12%	-10%	2%	-1%	-4%
TrxR1 substrate	-6%	7%	3%[57.1 µM]	-1%	9%[57.1 µM]	15%[57.1 µM]	4%[57.1 µM]	4%
Vif-APOBEC3G blk	-6%	-6%	-4%	1%	-5%	1%	-7%	-2%
mIDH1 inhibitor	5%	3%	2%	0%	8%	1%	-6%	0%
RGS4 inhibitor	-28%	-21%	14%	-6%	10%	4%	22%	-5%

4 entries out of the list, sorted by heavy-atom count, ascending:
38. CSc1n[nH]c(NCc2ccccc2)n1
36. Cc1c(C(=O)NCc2ccccc2F)oc2ccccc12
33. Cc1cccc(-n2c(=S)[nH]c3c(oc4ccccc43)c2=O)c1
39. COc1cccc(N(C(=O)c2cnccn2)C(C(=O)NC2CCCCC2)c2ccc(Cl)cc2)c1 (centres undefined)
Screen / compound no.	38	36	33	39
USP1 inh	-12%	-23%	-8%	0%
TrxR1 inh	18%[57.1 µM]	25%	?	34%[57.1 µM]
12-LOX inh	7%	7%	-22%	27%
Vif-APOBEC3F blk	2%	-12%	4%	-1%
TrxR1 substrate	15%[57.1 µM]	-1%	-6%	4%[57.1 µM]
Vif-APOBEC3G blk	1%	1%	-6%	-7%
mIDH1 inhibitor	1%	0%	5%	-6%
RGS4 inhibitor	4%	-6%	-28%	22%

(more compounds)
41. CCCCN(C)C(=O)CSc1nc2ccccc2nc1Cc1ccc(C)cc1
42. CCC(OC(=O)c1nsc(Cl)c1Cl)C(=O)NCC1CCCO1 (centres undefined)
43. O=C(NCc1cccs1)c1cc(-c2ccccn2)nc2ccc(Br)cc12
44. CCn1c(Cc2ccccc2)nnc1SCC(=O)Nc1ccccc1
45. CCOc1ccc(NC(=O)CSc2ccc3ccccc3n2)cc1
Screen / compound no.	41	42	43	44	45
USP1 inh	?	-2%	-1%	4%	-23%
TrxR1 inh	10%[57.1 µM]	12%	20%[57.1 µM]	9%	8%
12-LOX inh	-17%	19%	3%	-14%	-1%
Vif-APOBEC3F blk	1%	-15%	?	-18%	.
TrxR1 substrate	0%[57.1 µM]	3%	-3%	-9%	4%
Vif-APOBEC3G blk	2%	0%	1%	1%	.
mIDH1 inhibitor	9%	0%	18%	6%	.
RGS4 inhibitor	-5%	-9%	-5%	6%	-16%

Screens: PubChem BioAssay, National Center for Advancing Translational Sciences (NCATS)
